Source: PubChem (National Center for Advancing Translational Sciences (NCATS))
miR-21 FLuc = raises the signal of a miR-21 reporter; Potency, µM (top dose mostly 38.3 µM), inactives show top-dose reporter change, positive = more light; 340,000 tested, under 10 active; HeLa miR-21 FLuc reporter, luciferase, 48 h; AID 2288; active = well fitted rising curve with a large enough effect; inconclusive = small, poorly fitted or top-dose-only effect; inactive = no such curve, though single readings can be large or run the other way;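 note: % of control where 0% means no effect; miR-21 action dims this reporter so a rising signal means less miR-21 action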
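Compounds were titrated across several concentrations (up to approximately 40 uM) and incubated 48 hours with HeLa miR-21-FLuc reporter cells (miR-21 target sequence downstream of FLuc, endogenous miR-21). Readout was firefly luciferase luminescence after lytic detection reagent.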
* marks the source's active call; other numbers are inactive results; u = inconclusive. Not all compounds are listed; the hit share may differ from the screen's.

SMILES	miR-21 FLuc
Cc1cccc(CSc2nc3c(sc4ccccc43)c(=O)n2CCC(=O)NC(C)C)c1	-7%
O=C(Cn1c(=O)n(-c2ccccc2)c(=O)c2c3c(sc21)CCC3)c1ccc(Br)cc1	-2%
COc1ccccc1CN1COc2ccc3c(C)cc(=O)oc3c2C1	-1%
CCOC(=O)c1scc(-c2ccccc2)c1S(=O)(=O)N1CCN(c2ccc(Cl)cc2)CC1	11%
Cc1ccc(CN2C(=O)C3(c4ccccc42)N(c2cccc(C(F)(F)F)c2)C(=O)CS3(=O)=O)cc1 (stereo not drawn)	-1%
COc1cc2nc(NCC(C)c3ccccc3)n3nc(-c4ccccc4)nc3c2cc1OC (stereo not drawn)	-4%
CCc1ccc(OCCCn2c(-c3ccc(Cl)cc3)nc3ccccc3c2=O)cc1	-1%
CCOC(=O)c1sc2cccc(F)c2c1S(=O)(=O)N1CCN(c2cccc(Cl)c2)CC1	7%
Cc1cc(Cl)ccc1OCc1cc(=O)n2c3c(sc2n1)CCCC3	-1%
Cc1c(C)n(C)c2ccc(C(=O)NCc3cccc(F)c3)cc12	-12%
COc1ccc(NC(=O)CC2Nc3ccccc3NC2=O)cc1 (stereo not drawn)	-17%
CCOc1ccc(C(=O)Nc2ccc3oc(-c4ccc(C)cc4C)nc3c2)cc1Br	-2%
COc1ccc(NC(=O)CCCN2C(=O)CCn3nc(-c4cn(C)c5ccccc45)cc32)cc1	-2%
Cc1nc2c(c(C)c1CCC(=O)NCc1ccccc1)c(=O)n(C)c(=O)n2C	1%
COc1cc(OC)c(NC(=O)Cn2c(=O)c(C(F)(F)F)nc3ccccc32)cc1Cl	4%
O=C(c1ccc(CSc2nc3ccncc3n2Cc2cccc(F)c2)cc1)N1CCCCCC1	16%
COc1ccccc1NC(=O)Cn1c(SCC(=O)N(C)c2ccccc2)nc2ccccc21	u
CCc1ccc(Nc2nc3ccccc3nc2NS(=O)(=O)c2ccccc2)cc1	-21%
CCOc1ccc(CCNC(=O)c2ccc3c(Cl)c4c(nc3c2)CCCC4)cc1	0%
Cc1ccc2oc(=O)c(-c3nc(-c4cccs4)no3)cc2c1	-30%
COc1ccc(CCN2C(=O)CN(C3CCCCCC3)C(=O)C2c2ccc(OC(C)C)c(OC)c2)cc1OC (stereo not drawn)	-3%
CCCC(=O)N1CCN(c2nc3ccc(F)cc3s2)CC1	5%
Cc1nc2c(c(C)nn2-c2ccccc2)c(C)c1CCC(=O)Nc1ccccc1	0%
Cc1nnc(SCC(=O)Nc2ccc(Br)cc2)[nH]c1=O	17%
CCCn1ccc2c(OCC(=O)Nc3ccccc3OCC)cccc2c1=O	3%
O=C(OCc1cc(=O)n2nc(-c3cccs3)sc2n1)c1ccccc1Br	-11%
Cc1ccc(S(=O)(=O)c2nnn3c2nc(N2CCC(C(N)=O)CC2)c2cc(Cl)ccc23)cc1C	-12%
CCc1ccccc1NC(=O)CN(c1cccc(C)c1C)S(C)(=O)=O	-2%
CCOc1ccc(N2CC(c3nc4ccccc4n3CCC3CCCCC3)CC2=O)cc1 (stereo not drawn)	0%
COCCCNc1oc(-c2ccc(COc3ccccc3C)o2)nc1C#N	-8%

Molecules from the list above containing a carbonyl joined to an NH by a bond outside any ring, in the order listed:
SMILES	miR-21 FLuc
Cc1cccc(CSc2nc3c(sc4ccccc43)c(=O)n2CCC(=O)NC(C)C)c1	-7%
Cc1c(C)n(C)c2ccc(C(=O)NCc3cccc(F)c3)cc12	-12%
COc1ccc(NC(=O)CC2Nc3ccccc3NC2=O)cc1 (stereo not drawn)	-17%
CCOc1ccc(C(=O)Nc2ccc3oc(-c4ccc(C)cc4C)nc3c2)cc1Br	-2%
COc1ccc(NC(=O)CCCN2C(=O)CCn3nc(-c4cn(C)c5ccccc45)cc32)cc1	-2%
Cc1nc2c(c(C)c1CCC(=O)NCc1ccccc1)c(=O)n(C)c(=O)n2C	1%
COc1cc(OC)c(NC(=O)Cn2c(=O)c(C(F)(F)F)nc3ccccc32)cc1Cl	4%
COc1ccccc1NC(=O)Cn1c(SCC(=O)N(C)c2ccccc2)nc2ccccc21	u
CCOc1ccc(CCNC(=O)c2ccc3c(Cl)c4c(nc3c2)CCCC4)cc1	0%
Cc1nc2c(c(C)nn2-c2ccccc2)c(C)c1CCC(=O)Nc1ccccc1	0%
Cc1nnc(SCC(=O)Nc2ccc(Br)cc2)[nH]c1=O	17%
CCCn1ccc2c(OCC(=O)Nc3ccccc3OCC)cccc2c1=O	3%
Cc1ccc(S(=O)(=O)c2nnn3c2nc(N2CCC(C(N)=O)CC2)c2cc(Cl)ccc23)cc1C	-12%
CCc1ccccc1NC(=O)CN(c1cccc(C)c1C)S(C)(=O)=O	-2%

New compounds follow:
SMILES	miR-21 FLuc
COC(=O)c1ccccc1NC(=O)CCC(=O)N1CC(C)Sc2ccccc21 (stereo not drawn)	-1%
CCC(Sc1nnc(C)n2c1cc1occc12)C(=O)Nc1ccccc1F (stereo not drawn)	u
CCc1ccccc1NC(=O)c1cc2nc(-c3ccc(Br)cc3)cc(C(F)(F)F)n2n1	1%
COc1cc(Nc2nc3ccc(Cl)cc3nc2-n2nc(C)cc2C)cc(OC)c1	-2%
C=Cc1ccc(Cn2c(C)c(CNCc3cccc(Br)c3)c(C(=O)O)c2C)cc1	3%
Cc1ccc(S(=O)Cc2ccc(C(=O)NCc3ccc(OC(C)C)cc3)o2)cc1 (stereo not drawn)	2%
Cc1cccc(Cn2c(C)c(CNC3CCCCCC3)c(C(=O)O)c2C)c1	0%
Cc1c(C(=O)N2CCCCCC2)c(S(=O)(=O)Nc2cccc(C#N)c2)c(C)n1C	-4%
COc1cc(C)ccc1OCCCn1c(-c2ccc(Cl)cc2)nc2ccccc2c1=O	-3%
Cc1ccc(C(=O)COC(=O)CCC(=O)Nc2ccc(Oc3ccccc3)cc2)cc1C	0%
COc1ccc(S(=O)(=O)Nc2ccc3c(c2)N(C(C)=O)CCC3)cc1F	21%
CCCOc1ccc(CNC(=O)c2cc3ccccn3n2)cc1	-52%
O=C(CCn1c(=O)c2cccn2c2cccnc21)NCc1ccc(F)cc1	-6%
CCc1ccccc1S(=O)(=O)Cc1ccc(C(=O)NCCc2ccc(C)cc2)o1	24%
CCOc1ccc2cc(-c3nnc(Nc4ccccc4F)s3)c(=O)oc2c1	-18%
CCOc1ccc(NC(=O)C2CCCN(S(=O)(=O)c3ccc(Br)s3)C2)cc1 (stereo not drawn)	0%
Cc1ccc(CNC(=O)c2ccc(CSCc3ccccc3Cl)o2)cc1	-5%
CCN(CC)C(=O)Cn1c(=O)n(-c2ccc(OC)cc2OC)c(=O)c2c(C)c(C(=O)N(CC)CC)sc21	-2%
O=C(Nc1ccc(Cl)c(C(F)(F)F)c1)C1CCCN(S(=O)(=O)c2cccc3cccnc23)C1 (stereo not drawn)	-2%
CCc1ccccc1NC(=O)CSc1nnc(-c2cc(OC)c(OC)c(OC)c2)o1	-1%
Cc1nc(-c2cccc(F)c2)sc1CCNC(=O)c1ccc(F)c(F)c1	-3%
COc1ccc(C2NC(=O)c3c(sc4c3CCN(C)C4)N2)cc1O (stereo not drawn)	-1%
Cc1ccc(CNC(=O)c2nnn(Cc3ccc(F)cc3)c2N)cc1	-6%
CCc1cccc(NC(=O)COC(=O)c2cn(CC)c3nc(C)ccc3c2=O)c1	0%
CCOC(=O)c1oc2ccc(S(=O)(=O)n3nc(-c4ccccc4OC)cc3N)cc2c1C	8%
Cc1ccc(CN2CCN(CC(=O)Nc3ccc(C)c(C)c3)S2(=O)=O)cc1	7%
O=C(OCc1cc(Cl)ccc1OC(F)F)c1ccc([N+](=O)[O-])o1	7%
COc1ccc(NC(=O)Cn2c(=O)n(-c3ccc(OC)c(OC)c3)c(=O)c3ccccc32)cc1	-6%
COc1ccc(OC)c(NC(=O)c2ccc3c(Cl)c4c(nc3c2)CCCC4)c1	2%
Cc1nn(CC(=O)NCCc2ccccc2Cl)c(=O)c2nn(-c3ccccc3)c(C)c12	21%
CC(=O)Nc1cc(C(=O)NCc2ccc(F)cc2)ccc1Sc1ccc(F)cc1	12%
CCCCN(CC)CCCNC(=O)c1nn(C)c2c1CS(=O)(=O)c1ccccc1-2	14%
O=C1CC(c2nc3ccccc3n2CCC2CCCCC2)CN1c1ccccc1Cl (stereo not drawn)	u
O=S(=O)(Nc1nc2n(n1)C(c1ccc(F)cc1)C=C(c1ccccc1)N2)c1ccccc1 (stereo not drawn)	-1%
COc1ccc(NC(=O)CC2C(=O)N(c3ccccc3)C(=O)N2CCc2sccc2C)cc1 (stereo not drawn)	0%
COc1ccc(Br)cc1CNC(=O)c1cc(=O)[nH]c2ccc(S(=O)(=O)N3CCCCC3C)cc12 (stereo not drawn)	20%
Cc1cc(C)c(S(=O)(=O)Nc2ccc(-c3ccc(N4CCCCCC4)nn3)cc2)cc1C	-1%
Cc1ccc(NC(=O)c2c(C)nc3sc(C(=O)Nc4ccc(F)cc4)c(N)c3c2-c2ccc(Cl)cc2)c(C)c1	-7%
COc1cc(OC)c(N(C)C(=O)c2c(C)oc3ncnc(N4CCCCC4)c23)cc1Cl	0%
CCOC(=O)C1CCC(CN(Cc2ccc(Cl)cc2)S(=O)(=O)c2ccc(F)c(C(=O)Nc3cccc(F)c3)c2)CC1 (stereo not drawn)	8%
COc1ccc(-c2csc3ncnc(Nc4cc(OC)cc(OC)c4)c23)cc1	-12%
CCOCc1ccccc1Nc1ncnc2onc(-c3ccc(Cl)cc3)c12	-4%
CC(C)CC(=O)Nc1ccc(Cl)c(-c2nc3ccccc3[nH]2)c1	8%
CCN(c1ccccc1)S(=O)(=O)c1nnc(NC(=O)COc2cccc(C)c2)s1	-7%
CCc1cccc(NC(=O)Cn2c(=O)n3nc(-c4cccc(F)c4)nc3c3ccccc32)c1	-5%
Cc1cc(N2CCC(C(=O)Nc3ccccc3Cl)CC2)n2nc(C)c(-c3ccc(Cl)cc3)c2n1	4%
COc1cc(C(=O)Oc2c(Sc3ccccc3)c(C)nn2-c2ccccc2)cc(OC)c1OC	7%
O=C(NCc1ccc(Cl)cc1)c1ccc2oc(=O)n(Cc3ccccc3)c2c1	19%
Cc1ccccc1NC(=O)Nc1nnc(N(C)Cc2ccccc2)s1	-9%
CCc1cccc(NC(=O)CC(c2ccc(OC)cc2)N2Cc3ccccc3C2=O)c1 (stereo not drawn)	5%
The listing continues.
SMILES	miR-21 FLuc
Cc1c(C(=O)Nc2ccccc2Cl)sc2ncnc(N(C)C3CCCCC3)c12	1%
Cc1nc(N2CCOCC2)c2c(C(=O)NCCc3ccccc3)c(C)oc2n1	-42%
CCN(CC)CCCNC(=O)c1nn(-c2ccc(OC)c(Cl)c2)c(=O)c2c1c1ccccc1n2C	-7%
COC(=O)c1ccc(OC)c(Cn2c(=O)n(-c3cccc(Cl)c3)c(=O)c3c4c(sc32)CN(C(C)=O)CC4)c1	-8%
Cc1ccc(C)c(N2CCN(C(=O)c3ccc4c(=O)n(CCc5ccccc5)c(=O)[nH]c4c3)CC2)c1	0%
COc1ccccc1N1CCN(C(=O)c2cnn(C(C)(C)C)c2C2CCN(C(=O)OC(C)(C)C)CC2)CC1	13%
CCCCOc1ccc(CNC(=O)c2ccc(NC(=O)N3CCCCc4ccccc43)cc2)cc1	0%
COc1ccccc1CNC(=O)Cc1csc2nc(-c3ccc(F)cc3)cn12	1%
Cc1ccc(Cl)cc1N(C)C(=O)c1cn(C2CCCCC2)c(=O)c2c1c1ccccc1n2C	21%
O=C(NCCc1ccc(Cl)cc1)c1ccc2c(c1)N(Cc1ccccc1F)C(=O)c1ccccc1S2(=O)=O	5%
COc1ccc(-n2c(/C=C/c3c(C)[nH]c4ccccc34)nc3ccccc3c2=O)cc1	4%
CCOc1ccc(NC(=O)CSc2oc(-c3ccc(F)cc3)nc2S(=O)(=O)c2ccc(C)cc2)cc1	3%
O=S(=O)(NCC(c1ccco1)N1CCN(c2ccc(F)cc2)CC1)c1ccccc1 (stereo not drawn)	7%
CCC(=O)N1CCc2cc(Br)cc(S(=O)(=O)CCC(=O)NCc3ccc(Cl)cc3)c21	9%
Cc1oc2ncn(C)c(=O)c2c1C(=O)N1CCN(c2cccc(C(F)(F)F)c2)CC1	-2%
Cc1cc2oc(=O)c(CC(=O)O)c(C)c2c2occ(-c3ccc(F)cc3)c12	-28%
COc1ccccc1Nc1nc(N)nc(N)c1S(=O)(=O)c1ccccc1	-10%
COc1ccc(NC(=O)C(=O)NCCc2csc3nc(-c4ccccc4F)nn23)cc1OC	-6%
Cc1ccc(Cl)cc1NC(=O)c1oc2ccc(S(=O)(=O)N3CCCCC3)cc2c1C	2%
C#CCOc1ccc(C2CC(=O)Nc3c2c(C)nn3-c2nc(C)cc(C)n2)cc1 (stereo not drawn)	-5%
O=C(CSc1nnc(-c2cccs2)o1)Nc1cccc(C(F)(F)F)c1	-20%
CCOc1ccc(C(=O)NCCc2csc(-c3cccc(C)c3)n2)cc1	-2%
Cc1cc(C(=O)N2CCN(c3ccc(F)cc3)CC2)c2c(C)nn(-c3cccc(Cl)c3C)c2n1	-4%
COc1ccc(NC(=O)c2cc(S(=O)(=O)NCCC3=CCCCC3)ccc2F)cc1	26%
CCCOc1ccc(C2c3c(-c4ccccc4O)n[nH]c3C(=O)N2CCCOCC)cc1OCC (stereo not drawn)	u
CCc1ccc(-n2c(=O)c3c4c(sc3n(CC(=O)c3ccc(Br)cc3)c2=O)CCC4)cc1	4%
Cc1ccc2c(c1)cc(C(=O)Nc1ccc(F)cc1F)n2C	-7%
COc1ccccc1CNS(=O)(=O)c1ccc(F)c(C(=O)Nc2cc(Cl)ccc2OC)c1	-2%
CCOc1ccc(CNC(=O)CSc2cc(=O)n(CC)c3ccccc23)cc1	5%
COc1cccc(C(=O)Nc2cc(-c3ccccc3)no2)c1	3%
Cc1ccc(C)c(NC(=O)Cn2cc(S(=O)(=O)N3CCCC3)c(S(=O)(=O)N3CCCC3)c2)c1	1%
Cc1ccc(CNCc2c(C(=O)O)c(C)n(Cc3ccc(C)cc3)c2C)cc1	7%
